# Compound activity (PubChem)
# PINK1 modulator: changes PINK1 expression | hit rate 0.2% among 410,000 | AID 624263 | Potency, µM (highest dose often 76.6 µM), inactives show at the highest dose activation (PINK1 increase), hits mostly activators | PINK1 immunofluorescence, high-content cytometry, 24 h; active = well fitted activation curve with a large enough effect; inconclusive = small, poorly fitted or top-dose-only effect; inactive = flat fitted curve, though single readings scatter; cell line not stated here;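 note: potency is the fitted concentration of half-maximal effect; % of control where 0% means no effect; nearly all actives have a fitted effect of over 65% in size; a mitochondrial uncoupler was the plate control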
#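 PINK1 protein, normally rapidly degraded, was detected by immunofluorescence after 24 hour compound treatment of a stable cell line. Titration data (5 concentrations) came from laser-scanning cytometry, with CCCP-treated wells as controls.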
# D2 ag: human D2 receptor agonism in beta-arrestin assay; P14416; DiscoveRx PathHunter D2 beta-arrestin, luminescence, 90 min; 100% = 57 uM dopamine signal; activation, % (test concentration not listed); hit rate 0.084% among 360,000; in the data active = activation above about 40%; inconclusive = about 15% to 40%; inactive = below about 15%; note: compound concentration not given in the record; the text of the record calls up to 30% inactive
# Target sequence (P14416 whole entry, looked up): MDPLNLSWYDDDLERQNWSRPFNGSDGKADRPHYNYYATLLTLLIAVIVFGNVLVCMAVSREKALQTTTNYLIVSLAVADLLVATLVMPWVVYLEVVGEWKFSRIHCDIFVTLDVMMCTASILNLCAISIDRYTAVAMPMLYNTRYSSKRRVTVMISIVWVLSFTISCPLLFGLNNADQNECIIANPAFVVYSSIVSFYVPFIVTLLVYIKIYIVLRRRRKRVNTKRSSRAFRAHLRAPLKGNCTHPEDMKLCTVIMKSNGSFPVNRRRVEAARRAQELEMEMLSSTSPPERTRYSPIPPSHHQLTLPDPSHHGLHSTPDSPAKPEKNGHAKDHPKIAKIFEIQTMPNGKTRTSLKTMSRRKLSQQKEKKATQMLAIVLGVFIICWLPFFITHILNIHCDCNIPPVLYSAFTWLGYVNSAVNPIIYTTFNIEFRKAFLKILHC
#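 DiscoveRx PathHunter D2 beta-arrestin cells (2,100/well) attached overnight, then compound-stimulated 90 min at 37 C in HBSS/10 mM HEPES/0.1% Tween-20 buffer; beta-galactosidase complementation read by luminescence after 1 h at ambient temperature. Dopamine 57 uM final (EC100) as control.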
# D2 PAM: human D2 receptor positive allosteric modulation; DiscoveRx D2 beta-arrestin cells, luminescence, 90 min; 100% = 57 uM dopamine signal; P14416; hit rate 0.23% among 360,000; potentiation, % (no concentration beside the values); active = potentiation of 50% or more; inconclusive = 30% to 50%; inactive = 30% or less;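 note: compound concentration not given in the record; tested on top of an EC20 dose of dopamine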
#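 D2 cells co-treated with compound plus 50 nM dopamine (EC20) for 90 min at 37 deg C to detect potentiation. Beta-arrestin recruitment was read as enzyme-fragment luminescence after 1 h at ambient temperature. Full response was set by 57 uM dopamine.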
# CtBP-E1A inh: inhibitors of CtBP/E1A interaction | AlphaScreen GST-E1A/His-CtBP binding, 1536-well; hits give low values; control for the full effect not named in the record | hit rate 0.49% among 340,000 | activity change, % (concentration not given with the values); in the data active means activity change below about -65%; inconclusive means about -30% to -65%; inactive means above about -30%; note: % is set by controls: 0 for no effect and ±100 for the full control effect
#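 Protein mix (5X: 125 nM each GST-E1A, His-CtBP) was incubated with pinned compound 2 h at 37 deg C in dark, in 50 mM Tris pH 8.0 buffer with 300 mM NaCl. Glutathione donor and nickel acceptor beads followed; AlphaScreen signal read after 1 h.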
# Six1-Eya2 inh: Six1/Eya2 interaction inhibition | hit rate 0.56% among 360,000 | AlphaScreen GST-Six1/His-Eya2 binding, biochemical; hits give low values; control for the full effect not named in the record | Q15475+O00167 | activity change, % (test concentration not listed); in the data active = activity change below about -65%; inconclusive = about -30% to -65%; inactive = above about -30%; note: % is set by controls: 0 for no effect and ±100 for the full control effect; compound concentration not given in the record
#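 Homogeneous AlphaScreen proximity assay pairing GST-Six1 with His-tagged Eya2 (added as 5X mix: 250 nM and 500 nM) in 50 mM Tris pH 8.0, 300 mM NaCl, 1 mM TCEP. Glutathione donor and nickel acceptor beads; 1 h, 37 °C, dark.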
# TRPML1 ag: human mucolipin-1 channel agonism; Q9GZU1; TRPML1-expressing cells, Ca2+ dye fluorescence, FDSS; host cell line not named in the record; reference of the full effect not given here; activation, % (concentration not given with the values); hit rate 0.12% among 410,000; AID 624414; in the data active = activation above about 50%; inconclusive = about 30% to 50%; inactive = below about 30%; note: 0% is about no effect; the text of the record puts the active cut at 80%
# Target sequence (Q9GZU1 whole entry, looked up): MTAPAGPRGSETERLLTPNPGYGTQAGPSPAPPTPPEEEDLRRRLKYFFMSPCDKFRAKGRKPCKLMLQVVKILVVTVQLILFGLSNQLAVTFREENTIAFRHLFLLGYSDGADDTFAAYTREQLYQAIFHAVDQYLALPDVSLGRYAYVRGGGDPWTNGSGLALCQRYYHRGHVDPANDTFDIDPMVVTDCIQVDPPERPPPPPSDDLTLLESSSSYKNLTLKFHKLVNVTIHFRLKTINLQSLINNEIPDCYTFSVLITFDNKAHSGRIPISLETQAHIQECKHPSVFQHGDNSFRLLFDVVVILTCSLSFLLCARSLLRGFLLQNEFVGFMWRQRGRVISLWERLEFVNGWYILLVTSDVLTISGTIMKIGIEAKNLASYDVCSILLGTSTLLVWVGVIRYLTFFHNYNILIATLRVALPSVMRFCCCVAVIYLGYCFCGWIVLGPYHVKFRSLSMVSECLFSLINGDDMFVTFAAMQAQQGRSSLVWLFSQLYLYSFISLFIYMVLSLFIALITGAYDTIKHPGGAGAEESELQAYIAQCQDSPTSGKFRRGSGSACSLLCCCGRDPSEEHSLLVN
#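 Cells: TRPML1-DL, 1X Tet inducer, ~16 h at 37 degrees C/5% CO2. Dye: ABD Ca8 no-wash + quencher, 45-90 min RT. Read: 10 s baseline, compound add, 110 s agonist phase; 54-4 EC80 (4uM final), 110 s antagonist phase.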
# Numbers without * were called inactive; ? = inconclusive; . = not tested or not shown; & = joins results of further samples; ! = a repeat was not active; [ ] = another dose, or the depositor's remark.
# The line under a structure holds: PINK1 modulator, D2 ag, D2 PAM, CtBP-E1A inh, Six1-Eya2 inh, TRPML1 ag
O=C(Oc1ccc(Br)cc1C(=S)N1CCCC1)c1ccccc1F
    0.8%, -5.3, -28, 4, -26, 0.9
COc1cc(OC)cc(C(=O)N[C@H](C(=O)Nc2ccc3c(c2)OCO3)C(C)C)c1
    3.0%, -2.5, -2, -3, -20, 1.1
C=CCN(CC=C)C(=O)COC(=O)c1ccc(Sc2ncn[nH]2)c([N+](=O)[O-])c1
    -0.3%, -10, -11, ?, -22, -0.5
COc1ccc2c(c1)/C(=C\c1cccc(/C=C3/C(=O)Nc4ccc(OC)cc43)n1)C(=O)N2
    1.0%, -6.3, -19, -1, -7, 0.1
COc1ccc(C(=O)O)cc1NC(=S)NC(=O)Cc1ccc(Cl)cc1
    0.3%, 2.2, -3, 2, 0, 2.8
COc1ccccc1N1CCN(C(=O)C(=O)c2cn(CC(=O)N3CCCCCC3)c3ccccc23)CC1
    3.2%, 4.5, -27, 1, -17, 0.8
COc1cccc(CC(=O)Nc2ccc3c(c2)OC2(CCCC2)O3)c1
    1.7%, -9.3, -10, ?, -24, -0.3
Cc1ccc(-c2cc3ncc(C#N)c(N)n3n2)cc1
    2.9%, -3.8, -3, -9, -1, -0.1
Cc1ccccc1-n1c(C)cc(/C=N/NC(=O)c2ccc(CN3CCOCC3)cc2)c1C
    -0.7%[38.3 µM], -1.3, -5, -2, -2, -0.2
O=C(OCc1cnc(Cl)s1)c1c(F)cccc1F
    -0.3%, 2.9, -9, ., 6, 0.3
CN(c1ccccc1)S(=O)(=O)c1ccc(C(=O)OCC(=O)NCc2cccs2)cc1
    6.7%, -4.6, -14, ., 5, -0.9
COc1ccc(CCN2C(=O)NC(NS(=O)(=O)c3ccc(Cl)cc3)(C(F)(F)F)C2=O)cc1OC (configuration not stated)
    -0.6%, -1.8, -1, 4, 2, -0.8
Cc1onc(-c2c(Cl)cccc2Cl)c1C(=O)N(C)Cc1ccccc1
    -0.9%, -1.0, 0, 7, -4, 0.8
N#Cc1cccc(NC(=O)c2cc(C3CCCCN3C(=O)CCc3ccccc3)on2)c1 (configuration not stated)
    -0.8%, -4.0, -2, -8, -8, -0.7
COc1ccc(C2NC(=O)Cc3cc(OC)c(OC)cc32)cc1OC (configuration not stated)
    0.8%, -2.1, -7, -1, 12, 0.4
Cc1ccc2nc(N3CCN(S(=O)(=O)c4ccc5c(c4)OCCO5)CC3)c(C#N)cc2c1
    5.0%[38.3 µM], 0.1, -4, 22, 14, 2.8
CCOC(=O)C1CCCN(C2CC(=O)N(c3ccccc3)C2=O)C1 (configuration not stated)
    1.4%, 3.1, -4, ., 10, 0.5
COc1cc(C(=O)NC(C)CCn2cccn2)ccc1OC1CCN(C(C)=O)CC1 (configuration not stated)
    0.4%, -0.5, 0, 4, -4, 0.2
CCN1CCN(C(=O)C2=CC(c3ccc(OC)cc3)=NS(=O)(=O)N2C)CC1
    0.1%, 14, -1, 4, -1, -0.2
Oc1ccc(C=Nc2ccccc2-c2nc3ccccc3[nH]2)c(O)c1
    2.5%, -2.0, -3, 10, 4, -0.1
CC(=O)Nc1cccc(C(=O)OCCCOc2ccc(F)cc2)c1
    0.8%, -3.8, -8, -14, -6, 2.4
c1ccc(CNC23CC4CC(CC(C4)C2)C3)nc1
    1.4%, -2.2, -16, 0, 10, -0.3
Cc1nnc(SCC(=O)NCCN2C(=O)CSC2=O)n1-c1ccccc1
    0.0%, 0.1, 4, 6, -3, -0.5
CN(C)CCC(C(=O)c1ccccc1)c1ccccn1 (configuration not stated)
    -0.1%, -1.9, -10, -1, 1, 0.1
O=[N+]([O-])c1cc([N+](=O)[O-])c(Oc2c(F)ccc(F)c2F)cc1NN1CCCCC1
    6.0%, -1.5, -4, -9, -14, -0.6
Cc1ccc(-n2c(SCC(=O)N/N=C/c3c(C)nn(-c4ccccc4)c3C)nc3ccccc3c2=O)cc1
    2.4%, -3.4, -13, 1, 8, -0.1
CC(C)C(=O)NC(c1ccccc1)c1cc([N+](=O)[O-])c2cccnc2c1O (configuration not stated)
    -0.5%, -3.5, -17, -91*, -90*, -0.6
Cc1cnc(C(=O)OCC(=O)Nc2c(Cl)cc(Cl)cc2Cl)cn1
    0.9%, 2.9, 2, 2, 6, 0.4
CCOC(=O)c1cnc(N2CCOCC2)[nH]c1=O
    -2.2%, -0.1, -2, -2, 5, -1.0
O=C(Oc1ccc(-c2nnco2)cc1)N(c1ccccc1)c1ccccc1
    -0.6%, -3.3, -6, -2, 0, 1.8
O=C(CSc1nc2ccc(Cl)cc2[nH]1)c1ccc2c(c1)OCO2
    2.9%[38.3 µM], 0.4, -8, 1, 8, -0.4
Cc1cc(-c2ccccc2)nc(SCc2ccc(C(=O)O)cc2)n1
    -1.5%, -3.4, -16, ., 3, -0.5
COc1cccc(-c2cnc(C(O)c3ccc(SC)cc3)[nH]2)c1 (configuration not stated)
    0.6%, -6.1, -14, -24, -25, -0.2
O=C(NCCCN1CCOCC1)/C(=C/c1cccs1)NC(=O)c1ccccc1
    -0.1%, -0.5, -7, -12, -2, 0.2
O=C1SCC(c2ccccc2)=NN1Cc1ccccc1
    -0.6%, -0.9, -25, 2, 10, 2.5
CCc1ccc(NC(=S)N(CCCN2CCOCC2)Cc2ccccn2)cc1
    -0.6%, 0.9, -9, 7, -5, 0.0
CCn1c(CCC(=O)O)nc2cc(S(=O)(=O)N3CCOCC3)ccc21
    0.6%, 0.2, -3, 0, 3, -0.2
Cc1ncc(CN2CCC(CO)(Cc3ccccc3)CC2)s1
    0.5%, -3.3, -8, -7, -4, -0.5
CC1(Oc2ccccc2-c2ccno2)CCN(Cc2ccc(-c3ccccc3)o2)C1 (configuration not stated)
    0.0%, -3.0, -7, -16, -14, 0.1
CCc1nnc(NC(=O)C2Cc3ccccc3C(=O)O2)s1 (configuration not stated)
    0.2%, -5.0, -1, 1, 1, -0.7
CCC12CN3CC(CC)(CN(C1)C3c1c(O)ccc3ccccc13)C2=O (configuration not stated)
    1.5%, -0.2, 8, -2, 7, -1.4
CC(=O)OCC(=O)Nc1ccc(Br)c(C)c1
    2.3%, -1.1, -2, -5, -9, 0.2
O=C(c1ccc(Cl)c(S(=O)(=O)N2CCCCCC2)c1)N1CCN(c2ccc(O)cc2)CC1
    -1.2%, 4.0, 16, ., -12, -0.8
COC(=O)c1ccc(N)c(N=CC2=C(O)CC(C)(C)CC2=O)c1
    5.4%, -20, -52, -3, -5, 2.1
COc1ccc(-c2ccc3c(c2)[C@@H]2C[C@H](N(C)S(=O)(=O)c4ccccc4)[C@H]([C@H](C)O)C(=O)N2CC3)cc1
    -1.0%, 0.2, 6, -5, -5, 3.6
Cc1cccc(OCC(O)CN2CCN(CCN3C(=O)c4cccc5cccc(c45)C3=O)CC2)c1C (configuration not stated)
    -2.7%, -0.6, -25, ., ?, 2.1
NC(N)=N/N=C/c1ccc(Br)cc1
    0.2%, -4.6, -7, ., 16, 1.5
COC(=O)c1cccc(Nc2c3c(nc4ccccc24)CCC3)c1
    23%, -2.6, -12, 2, -4, -0.3
CCN1/C(=C/C(C)=C/c2sc3ccccc3[n+]2CC)Sc2ccccc21
    4.8%&-1.1%, -3.1, -30, ?, -80*!, 2.2&2.3
O=S(=O)(NC1CC1)c1ccc(S(=O)(=O)N2CCc3ccccc32)cc1
    -2.2%[38.3 µM], -2.0, -11, 10, 3, -0.6
CC(C)(C)C(=O)O/N=C(\N)c1c(Cl)cccc1Cl
    1.9%, 1.1, 15, 2, 9, -0.4
O=C(N[C@@H](Cc1ccccc1)C(=O)NC1CC1)c1ccc(Cl)cc1
    -0.3%, -3.6, -9, -4, -7, 0.0
CCOC(=O)c1c(NC(=O)CN2C(=O)NC(C)(c3ccccc3)C2=O)sc(C)c1C (configuration not stated)
    -2.3%, 2.8, 0, -7, 1, 1.2
CCOC(=O)c1cccc(NC(=O)/C=C/c2ccc3c(c2)OCO3)c1
    12%, 0.7, -6, 0, 4, 0.8
CC(C)n1c(C(=O)OCC(=O)NCc2ccc3c(c2)OCO3)cc2sccc21
    4.6%[38.3 µM], -0.7, -17, 7, -11, 1.2
CC(C)S(=O)(=O)C1=NSC2=NC(=O)/C(=C\c3ccc(-c4ccccc4)o3)C(=N)N21
    16%, 6.1, -3, -11, 6, 5.2
CCCCN1Cc2ccccc2Oc2cc(Br)ccc2S1(=O)=O
    0.6%, 1.1, -1, -6, 4, 0.3
CCc1cc(C(=O)Cc2nc3ccccc3[nH]2)c(O)cc1O
    11%, -3.0, -15, -2, 0, -0.3
CC(=O)OC(C(=O)n1nc(C)cc1C)c1ccccc1 (configuration not stated)
    0.0%, 1.7, -6, 10, 5, 1.4
O=C(NC(=O)c1ccccc1Cl)Nc1ccc(-c2cnco2)cc1
    14%, -2.7, -11, ., 6, -0.9

# (further entries)
# The line under a structure holds: PINK1 modulator, D2 ag, D2 PAM, CtBP-E1A inh, Six1-Eya2 inh, TRPML1 ag
N#Cc1ccccc1NC(=O)c1ccccc1OCC(=O)NCc1ccco1
    2.7%[38.3 µM], -1.6, -7, -20, -8, -0.5
CCCC[C@@H]1CNC(=O)C(=O)N1CC1CCCCC1
    -1.3%, ., ., -23, 5, -0.6
O=C(NCc1ccccc1Cl)c1ccc(Cn2cc(C(F)(F)F)ccc2=O)cc1
    47%[38.3 µM], -3.6, -10, 4, 8, -0.4
O=C(c1ccccc1Cl)c1c(O)c2ccccc2oc1=O
    -0.2%, 8.2, 8, ., 0, 1.1
Cc1c(C(=O)O)sc2nc(SCC(=O)Nc3ccc(S(=O)(=O)NC(C)(C)C)cc3)[nH]c(=O)c12
    2.2%, -5.1, -3, -8, -1, 0.7
CC1CN(Cc2ccccc2)C(=S)NC1=O (configuration not stated)
    0.4%, -2.0, 2, 7, 7, -0.4
COc1ccc(NC2CC(=O)N(c3cccc([N+](=O)[O-])c3)C2=O)cc1 (configuration not stated)
    8.0%, -5.2, -13, 0, -12, -1.4

# Given field by field: part of the list above
N#Cc1ccccc1NC(=O)c1ccccc1OCC(=O)NCc1ccco1
  PINK1 modulator = 2.7%[38.3 µM] | D2 ag = -1.6 | D2 PAM = -7 | CtBP-E1A inh = -20 | Six1-Eya2 inh = -8 | TRPML1 ag = -0.5

CCCC[C@@H]1CNC(=O)C(=O)N1CC1CCCCC1
  PINK1 modulator = -1.3% | D2 ag = . | D2 PAM = . | CtBP-E1A inh = -23 | Six1-Eya2 inh = 5 | TRPML1 ag = -0.6

O=C(NCc1ccccc1Cl)c1ccc(Cn2cc(C(F)(F)F)ccc2=O)cc1
  PINK1 modulator = 47%[38.3 µM] | D2 ag = -3.6 | D2 PAM = -10 | CtBP-E1A inh = 4 | Six1-Eya2 inh = 8 | TRPML1 ag = -0.4

O=C(c1ccccc1Cl)c1c(O)c2ccccc2oc1=O
  PINK1 modulator = -0.2% | D2 ag = 8.2 | D2 PAM = 8 | CtBP-E1A inh = . | Six1-Eya2 inh = 0 | TRPML1 ag = 1.1
